# Screens (PubChem)
# CHT block – human CHT choline transport inhibition | B-score at 10 µM | CHT-expressing cells, membrane potential dye, choline response; active compounds read low | Q9GZV3 | actives 0.86% (n = 310,000);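 active means B-score over 3 SD under the library average, and starting fluorescence ratio not unusually high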;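 further: choline stimulus applied at its EC90 after an EC20 pre-addition; B-score computed on integrated fluorescence ratio after choline addition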
# Target sequence (Q9GZV3 whole entry, looked up): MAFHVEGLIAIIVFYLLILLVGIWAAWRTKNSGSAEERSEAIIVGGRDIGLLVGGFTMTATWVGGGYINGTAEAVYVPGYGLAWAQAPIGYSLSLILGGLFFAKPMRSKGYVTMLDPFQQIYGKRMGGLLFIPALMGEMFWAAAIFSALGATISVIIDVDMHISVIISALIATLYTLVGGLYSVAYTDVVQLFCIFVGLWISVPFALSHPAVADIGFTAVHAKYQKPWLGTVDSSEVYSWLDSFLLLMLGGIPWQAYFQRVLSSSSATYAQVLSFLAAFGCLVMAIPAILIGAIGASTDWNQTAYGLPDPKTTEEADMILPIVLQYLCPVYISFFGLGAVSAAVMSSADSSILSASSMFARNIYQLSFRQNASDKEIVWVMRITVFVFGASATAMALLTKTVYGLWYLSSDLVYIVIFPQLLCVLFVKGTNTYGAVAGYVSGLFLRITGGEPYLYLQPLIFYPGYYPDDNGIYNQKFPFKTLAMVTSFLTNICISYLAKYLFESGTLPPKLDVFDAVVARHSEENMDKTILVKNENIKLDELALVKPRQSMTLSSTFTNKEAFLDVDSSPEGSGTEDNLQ
# CHT PAM – human CHT allosteric activation; B-score at 10 µM; actives 0.49% (n = 310,000); Q9GZV3; CHT-expressing cells, membrane potential dye, choline EC20; active compounds read high; LV-AA mutant CHT in HEK293 cells;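 active means initial fluorescence not abnormally high and integrated response B-score, plate-corrected, over 3 SD above library mean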
# Calls only; i = inactive. The list is partial, and most or all hits are left out here.
SMILES,CHT block,CHT PAM
COC(=O)C(O)(c1c(C)[nH]n(-c2ccccc2)c1=O)C(F)(F)F (stereo not drawn),i,i
O=C1NC(=O)C(=C/C=C/c2coc3ccc(Br)cc3c2=O)C(=O)N1,i,i
Cc1[nH]c2ccc(O)cc2c1CCN,i,i
O=C1NC(=O)N(CCc2ccc(F)cc2)C(=O)/C1=C/c1ccco1,i,i
O=C(CN1CCCCC1)c1ccccc1F,i,i
Cc1nc2ccccc2c(=O)n1-n1cnnc1,i,i
CC(=O)NC1CC2CCCC(C1)N2 (stereo not drawn),i,i
CCN(CC)C(=O)c1ccc(NC(=O)c2cc(-n3cnnc3)ccc2Cl)cc1,i,i
CCOC(=O)CSc1ccc(C(=O)N2CCC3(CC2)OCCO3)cc1[N+](=O)[O-],i,i
O=C(c1ccco1)c1cn(Cc2ccccc2Cl)c2ccccc12,i,i
CN(C)Cc1ccccc1OC(=O)N(C)C,i,i
COC(=O)C1=C(c2cc3ccccc3s2)C[C@@H]2CC[C@H]1N2C(=O)NC1CC1,i,i
CC(=O)OC1(c2ccccc2)CCN(C)C2CCCCC21 (stereo not drawn),i,i
CCC(C)NC(=O)c1c(N)n(Cc2ccc3c(c2)OCO3)c2nc3ccccc3nc12 (stereo not drawn),i,i
Cn1c(O)c(/C=N/N2CCCCC2)c(=O)[nH]c1=O,i,i
Cc1ccc(C(=O)C2CN(C)CC2C(=O)c2ccc(C)cc2)cc1 (stereo not drawn),i,i
Cc1ccc(Sc2ccc(C=C3C(=O)N(C)C(=O)N(C)C3=O)o2)cc1,i,i
O=C1CN=C(c2ccccc2)c2cc(Br)ccc2N1Cc1cc(=O)n2ccccc2n1,i,i
C[C@@]12N[C@@H](Cc3ccccc31)c1ccccc12,i,i
Clc1ccc2c(c1)C(c1ccccc1Cl)=NCc1nnc(N3CCN(CCSc4ccccc4)CC3)n1-2,i,i

# Random excerpt: two entries already listed
SMILES,CHT block,CHT PAM
O=C1CN=C(c2ccccc2)c2cc(Br)ccc2N1Cc1cc(=O)n2ccccc2n1,i,i
CC(=O)OC1(c2ccccc2)CCN(C)C2CCCCC21 (stereo not drawn),i,i

# (list continues)
SMILES,CHT block,CHT PAM
CC(c1ccc(F)cc1)n1cc(C(=O)NCc2ccc3c(c2)OCO3)nn1 (stereo not drawn),i,i
CN1Cc2c(c(C#N)c(N)n(C)c2=S)CC1(C)C,i,i
CN1CCCC(C(=O)c2ccccc2)C1 (stereo not drawn),i,i
O=C1NC(=O)C(CCc2ccncc2)(CCc2ccncc2)C(=O)N1CCc1ccc(F)cc1,i,i
O=c1[nH]c(=O)n(-c2cccc3ccccc23)c(O)c1C=NCCCn1ccnc1,i,i
O=Cc1cn(Cc2ccc([N+](=O)[O-])cc2)c2ccccc12,i,i
C=CCN1C(=O)/C(=C/c2ccc(Br)s2)C(=O)NC1=S,i,i
CCn1c(O)c(/C=N/N2CCOCC2)c(=O)n(CC)c1=S,i,i
Cn1c(O)c(C(=O)c2ccccc2F)c(=O)n(C)c1=O,i,i
O=C1NC(=O)C(Cc2cccs2)C(=O)N1,i,i
O=C(c1ccccc1F)c1cn(CC(=O)N2CCOCC2)c2ccccc12,i,i
Cc1cccc(C(=O)NC(Oc2ccccc2)C(Cl)(Cl)Cl)c1 (stereo not drawn),i,i
COc1ccccc1OCC#CCN1CCCC(C)C1 (stereo not drawn),i,i
CCC(=NCc1ccc2c(c1)OCO2)c1c(O)n(C2CCCCC2)c(=O)[nH]c1=O,i,i
O=C(Nc1ccccc1Cl)OC1CN2CCC1CC2 (stereo not drawn),i,i
COc1ccccc1N1CCNCC1,i,i
c1ccc(C(OCCN2CCN(c3ncccn3)CC2)c2ccccc2)cc1,i,i

# A second format for 17 compounds above.
Structure	CHT block	CHT PAM
O=C1CN=C(c2ccccc2)c2cc(Br)ccc2N1Cc1cc(=O)n2ccccc2n1	i	i
C[C@@]12N[C@@H](Cc3ccccc31)c1ccccc12	i	i
Clc1ccc2c(c1)C(c1ccccc1Cl)=NCc1nnc(N3CCN(CCSc4ccccc4)CC3)n1-2	i	i
CC(c1ccc(F)cc1)n1cc(C(=O)NCc2ccc3c(c2)OCO3)nn1 (stereo not drawn)	i	i
CN1Cc2c(c(C#N)c(N)n(C)c2=S)CC1(C)C	i	i
CN1CCCC(C(=O)c2ccccc2)C1 (stereo not drawn)	i	i
O=C1NC(=O)C(CCc2ccncc2)(CCc2ccncc2)C(=O)N1CCc1ccc(F)cc1	i	i
O=c1[nH]c(=O)n(-c2cccc3ccccc23)c(O)c1C=NCCCn1ccnc1	i	i
O=Cc1cn(Cc2ccc([N+](=O)[O-])cc2)c2ccccc12	i	i
C=CCN1C(=O)/C(=C/c2ccc(Br)s2)C(=O)NC1=S	i	i
CCn1c(O)c(/C=N/N2CCOCC2)c(=O)n(CC)c1=S	i	i
Cn1c(O)c(C(=O)c2ccccc2F)c(=O)n(C)c1=O	i	i
O=C1NC(=O)C(Cc2cccs2)C(=O)N1	i	i
O=C(c1ccccc1F)c1cn(CC(=O)N2CCOCC2)c2ccccc12	i	i
Cc1cccc(C(=O)NC(Oc2ccccc2)C(Cl)(Cl)Cl)c1 (stereo not drawn)	i	i
COc1ccccc1OCC#CCN1CCCC(C)C1 (stereo not drawn)	i	i
CCC(=NCc1ccc2c(c1)OCO2)c1c(O)n(C2CCCCC2)c(=O)[nH]c1=O	i	i
